From PubChem BioAssay
Menin-MLL FL inh – inhibitors of human menin-MLL interaction, wild-type MLL peptide; Fluorescence polarization, fluorescein-MLL peptide displacement from menin; FP activity change, % at 61.4 µM; 290,000 tested, under 10 active; inconclusive = falling polarisation curve, or a change in total fluorescence; inactive = total fluorescence flat and polarisation flat or rising; no compound was filed as active; the % refers to the polarisation; negative = inhibition;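 note: % of control where 0% means no effect; inhibitors lower the polarisation; unlabelled MLL peptide was the positive control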
TRPV1 potentiator – human TRPV1 potentiation. TRPV1-expressing cells, Fluo-8 calcium influx, capsaicin EC20 potentiation; host cell line not named in the record; control for the full effect not named in the record. AID 540277. potentiation, % at 8.33 µM. actives 0.02% (n = 320,000); active means potentiation above 80%; inconclusive means 30% to 80%; inactive means below 30%; note: 0% is about no effect
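Fluo-8 calcium influx in TRPV1-expressing cells, kinetic read (ex 480/em 520 nm). Compound added and read 3 min for agonist activity, followed by capsaicin at EC20 final and 2 min further read for enhancement.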
Sfp inh – inhibitors of Bacillus subtilis Sfp phosphopantetheinyl transferase. Potency, µM, without a hit: max response, negative = inhibition, usual class: inhibitors. Biochemical Sfp PPTase activity, qHTS. Q9F4F7. AID 1490. actives 3.5% (n = 310,000); active = well fitted inhibition curve with a large enough effect; inconclusive = small, poorly fitted or top-dose-only effect, or another doubt; inactive = no such curve, though single readings can be large or run the other way;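 note: the enzyme is Sfp with the accession as filed and its product quenches rhodamine fluorescence; potency is the fitted concentration of half-maximal effect; 0% = enzyme reaction without inhibitor and -100% = no enzyme wells; top concentration of the series not given in the record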
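Reaction rates are the 30-min fluorescence difference (ex 525, em 598 nm) in wells containing 15 nM Sfp, 5 uM rhodamine-CoA and 12.5 uM BHQ-2-YbbR at pH 7.6 with 10 mM MgCl2.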
gsp antagonist – antagonists of gsp mutant (McCune-Albright syndrome). gsp-mutant cells, cAMP HTRF, 30 min; control for the full effect not named in the record. Potency, µM (series often up to 76.9 µM), without a hit: at the top dose activity change, negative = inhibition, usual class: inhibitors. AID 624288. actives 0.4% (n = 340,000); active = falling curve of any shape with a large fitted effect; inconclusive = falling curve, mostly with a smaller effect; inactive = flat or rising curve; cell line not stated here;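 note: intracellular cAMP measured with PDE inhibitor Ro 20-1724 present during compound exposure; potency is the fitted concentration of half-maximal effect; % is set by controls: 0 for no effect and ±100 for the full control effect; nearly all actives have a fitted effect of over 65% in size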
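Cells, 2000/well, grown 16–24 h in DMEM 10% FBS with 0.5 mg/ml G418, then compounds plus […] (300 uM addition stock), 30 min at 37C. cAMP read by HTRF (cAMP-d2 and anti-cAMP antibody-K in lysis buffer) after 30 min RT.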
gsp agonist – gsp mutant agonism. Potency, µM (highest dose often 76.9 µM), without a hit: at the top dose activation (cAMP increase), most hits filed as activators. gsp mutant cells, cAMP HTRF, 30 min; control for the full effect not named in the record. actives 0.13% (n = 340,000); active = well fitted activation curve with a large enough effect; inconclusive = small, poorly fitted or top-dose-only effect, or another doubt; inactive = no such curve, though single readings can be large or run the other way; cell line not stated here;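 note: phosphodiesterase inhibitor Ro 20-1724 added with compounds to block cAMP breakdown; potency is the fitted concentration of half-maximal effect; nearly all actives have a fitted effect of over 60% in size; about a fifth of the inactives were tested at one dose only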
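Cells in DMEM/10% FBS with G418 were pretreated with compounds in DMSO plus […] (300 uM stock) for 30 min at 37C. cAMP was measured by HTRF (cAMP-d2 plus anti-cAMP antibody-K) after 30 min at room temperature.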
D2 potentiator – potentiates the human D2 dopamine receptor allosterically; AID 624464; potentiation, % (test concentration not listed); actives 0.23% (n = 360,000); P14416; DiscoveRx D2 beta-arrestin cells, luminescence, 90 min; 100% = 57 uM dopamine signal; active = potentiation of 50% or more; inconclusive = 30% to 50%; inactive = 30% or less;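 note: compound concentration not given in the record; tested on top of an EC20 dose of dopamine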
Target sequence (P14416 whole entry, looked up): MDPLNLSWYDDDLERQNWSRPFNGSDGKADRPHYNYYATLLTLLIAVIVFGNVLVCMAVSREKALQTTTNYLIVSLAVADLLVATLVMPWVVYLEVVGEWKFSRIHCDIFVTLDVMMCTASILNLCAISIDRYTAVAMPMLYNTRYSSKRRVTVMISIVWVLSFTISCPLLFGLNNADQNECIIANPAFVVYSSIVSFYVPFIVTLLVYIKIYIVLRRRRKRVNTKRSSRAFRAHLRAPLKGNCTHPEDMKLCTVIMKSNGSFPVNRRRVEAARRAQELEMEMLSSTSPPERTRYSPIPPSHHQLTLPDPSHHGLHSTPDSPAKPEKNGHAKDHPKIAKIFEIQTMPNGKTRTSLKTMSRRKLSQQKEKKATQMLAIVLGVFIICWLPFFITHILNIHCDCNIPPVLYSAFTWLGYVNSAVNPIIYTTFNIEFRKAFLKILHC
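PathHunter D2 cells, attached overnight at 37 deg C, received compound in DMSO plus dopamine at EC20 (50 nM final) for 90 min at 37 deg C. Beta-arrestin recruitment was read as luminescence after 1 h with detection reagent at ambient temperature.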
ClpP mod – qHTS Assay for Activators of ClpP. Potency, µM (doses to about 57.5 µM), without a hit: top-dose activity change, negative = active. AID 651965, 2013. ATP-dependent Clp protease proteolytic subunit (Bacillus subtilis (strain 168)), P80244. purified B. subtilis ClpP, FRET peptide cleavage, 20 min. actives 1.9% (n = 340,000); active = well fitted falling curve with a large enough effect; inconclusive = small, poorly fitted or top-dose-only effect; inactive = no such curve, though single readings can be large or run the other way; note: potency is the fitted concentration of half-maximal effect; the source files actives as falling curves though it sought activators and does not explain the sign; nearly all actives have a fitted effect of over 65% in size; many hits overshoot -100%
Target sequence (P80244 whole entry, looked up): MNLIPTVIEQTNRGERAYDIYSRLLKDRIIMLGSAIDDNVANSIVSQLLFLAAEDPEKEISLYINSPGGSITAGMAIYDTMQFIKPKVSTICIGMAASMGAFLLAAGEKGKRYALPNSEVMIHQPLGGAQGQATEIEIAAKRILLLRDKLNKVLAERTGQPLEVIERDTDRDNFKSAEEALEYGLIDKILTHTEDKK
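Buffer: 100 mM Tris/HCl pH8, 100 mM KCl, 0.05% low protease BSA, 2.5% glycerol, 0.01% Tween-20. ClpP 10 microg/mL final; 20 min RT; delta FRET normalized to ADEP and DMSO controls.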
* hit, by the source's call; u = inconclusive; x = not tested or not shown; & = joins results of further samples; [ ] = another dose, or the depositor's remark.

SMILES	Menin-MLL FL inh	TRPV1 potentiator	Sfp inh	gsp antagonist	gsp agonist	D2 potentiator	ClpP mod
CCCCCC(=O)N1C[C@@H](O)[C@H](n2cc(C3CC3)nn2)C[C@@H]1c1ccc(OC)cc1	x	x	x	x	-26%	4	0.9%
COc1ccc(-c2ccc(C#N)c(SCC(=O)Nc3sc4c(c3C#N)CCC4)n2)cc1OC	14	7	-9%	-1%	0%	0	u
COc1c(Br)cc(Br)cc1C(=O)O	1.3	3	0%	9%	2%	1	1.6%
CS(=O)(=O)N1CCC(C(=O)Nc2ccccc2Cl)CC1	-2.9	19	19%	9%	-10%	-2	-0.3%
CN(C)CCn1c2c(c(SCC(=O)Nc3ccc4c(c3)OCCO4)nc1=O)CCC2	x	1	x	1%	25%	-4	u
COc1ccc2cc(C(c3nnnn3C3CCCC3)N3CCc4ccccc4C3)c(=O)[nH]c2c1 (stereo not given)	-1.3	18	22µM*	-25%	-22%	-7	-24%
Cc1cc(N2CCN(C)CC2)nc2ccc(NC(=S)N3CCOCC3)cc12	-4.4	-3	-11%	10%	-9%[15.4 µM]	-7	x
Cc1ccc(S(=O)(=O)N(C)C[C@@H]2Oc3ccc(NC(=O)CCC(F)(F)F)cc3CC(=O)N([C@@H](C)CO)C[C@@H]2C)cc1	x	x	x	19%	x	-3	1.4%
COC(=O)c1ccc(C2C(C(=O)Nc3ccc(C)cc3C)=C(C)Nc3ncnn32)cc1 (stereo not given)	1.7	x	7%	0%	-29%	-4	-4.5%
COc1ccc(OC)c(NC(=O)Cn2c(=O)oc3ccccc32)c1	2.7	4	-2%	1%	19%	-35	-1.7%
COc1ccc(CCNC(=O)c2cc(-c3ccccc3OC)on2)cc1OC	1.2	6	-10%	-10%	-18%	-7	-16%
CN(c1ccccc1C(=O)NC1CC2CCC1C2)S(=O)(=O)c1ccccc1 (stereo not given)	x	-5	-7%	5%	15%	-8	7.9µM*
O=C(CSc1nc2c(c(=O)n1-c1ccc(Cl)cc1)SCC2)N1CCCC1	0.9	-25	2%	-12%	-5%	-5	-5.4%
Cn1c(CN2CCN(C(=O)c3ccccc3Cl)CC2)nc2cc([N+](=O)[O-])ccc21	x	-20	9%	7%	14%[15.4 µM]	1	x
Cc1ccc(NC(=O)CCN2CCC(Cc3ccccc3)CC2)cc1	-4.1	-4	-3%	8%	-5%	-25	x
O=C(CSc1nc2ccc(Cl)cc2[nH]1)NC1CCCC1	0.3	7	-1%	-19%	u	-9	0.6%
CCc1ccc(N(C(=O)c2snc(C(N)=O)c2N)C(C(=O)NCCC(C)C)c2c[nH]c3ccccc23)cc1 (stereo not given)	5.9	5	15%	5%	35%	-2	-10%
CCOc1ccc(NC(=O)NC2CCOC(C)(C)C2)cc1 (stereo not given)	2.5	-6	14%	5%	-103%[inhibitor]	20	0.6%
COc1cccc(OC)c1C(=O)Nc1cccc(-c2nc3ccccc3[nH]2)c1	0.7	1	1%	-2%	-6%[15.4 µM]	6	x
COCCNC(=O)C(c1ccc(F)cc1)N(CCOC)C(=O)CCC(=O)Nc1nccs1 (stereo not given)	-0.4	-16	16%	-7%	1%	-6	-1.4%
Nc1c(C(=O)OCC(=O)Nc2ccccc2Br)[nH]c(=O)[nH]c1=O	x	x	x	-8%	-3%	-12	-12%
CC1=C/C(=N\NC(=S)NCc2ccccc2)CC1	4.3	3	9%	-6%	-1%[15.4 µM]	-16	1.3%
CCOC(=O)CN(C(=O)CCC(=O)Nc1cc(C)on1)C(C(=O)NC1CCCC1)c1cccnc1 (stereo not given)	-1.1	-15	32%[activator]	0%	-35%[inhibitor]	-11	0.8%
O=C(NCC(=O)N(c1cccc(F)c1)C(C(=O)NC1CCCC1)c1cccnc1)c1ccco1 (stereo not given)	4.7	-6	1%	-6%	9%[15.4 µM]	-10	-3.5%
Cc1ccc(COc2ccc(C)nc2[N+](=O)[O-])cc1	1.8	-5	8%	-1%	4%[15.4 µM]	-2	0.6%
COc1ccc(-c2cn(CCC(=O)NCc3ccc(C)cc3)c(CCN)n2)cc1	x	5	x	-1%	-27%	-15	-3.2%
N#CC1=C(N)OC2=C(CC/C2=C\c2ccccc2)C1c1ccccc1 (stereo not given)	-4.6	-7	21%	-2%	-43%[inhibitor]	-8	-7.7%
Cc1nnc2sc(SCc3cccc(Cl)c3)nn2c1=O	-2.1	-12	4%	4%	-31%[15.4 µM]	6	x
CC(C)Sc1nc(O)c(Cc2ccccc2)c(=O)[nH]1	3.7	2	14%	10%	3%	-10	-2.4%
O=C(NCC1CCCO1)c1ccc(NC(=O)c2cccc(Br)c2)cc1 (stereo not given)	-1.6	0	21%	-8%	-38%[inhibitor]	94*	1.9%
COc1ccc(C2(CNC(C)=O)CCOCC2)cc1OC	-1.3	13	8%	7%	u	-5	-2.2%
CCn1cc(C=O)c2cc(S(=O)(=O)N3CCOCC3)ccc21	1.1	23	3%	-11%	3%	-5	-1.6%
O=C(NC1CC1)C1=C[C@H](c2c[nH]c3ccccc23)C[C@H](OCc2ccc(CO)cc2)O1	3.3	-12	-5%	-5%	x	-9	-1.2%
Cc1ccc2cc(C)c3nnc(SCC(=O)c4cccs4)n3c2c1C	-1.2	-15	-21%	-3%	-37%[inhibitor]	-6	-2.4%
CCCCn1c(=O)[nH]c(=O)c2c1nc(-c1ccc(C(F)(F)F)cc1)n2C	-9.3	4	13%	1%	24%	0	x
CSc1ccccc1OCc1cc(C(=O)N(C)C(C)c2nc(C)cs2)no1 (stereo not given)	x	-44	-2%	-7%	-8%	-4	-9.7%
O=C1C=C(c2ccc(OC(F)(F)F)cc2)C[C@@H](c2ccc(Cl)cc2)C1	x	-4	x	8%	x	-8	-3.9%
Cc1cc(NC(=O)c2cccc(C(=O)Nc3cc(C)on3)n2)no1	1.3	u	u	12%	7%	6	u
O=C(Nc1nc(-c2ccccn2)cs1)c1ccc(-c2ccccc2F)o1	x	5	x	-18%	1%	-1	u
O=C1CCCCN1CC(=O)N1CCCC(N2CCN(c3ccccc3F)CC2)C1 (stereo not given)	-2.6	9	22%	5%	-22%	-13	x
O=C1N[C@@H](Cc2ccccc2)COC(=O)[C@@H](Cc2ccc(F)cc2)CC/C=C/C[C@H]1CC(=O)N(CCO)Cc1ccccc1	x	x	x	-23%	x	-6	-1.8%
NC(=O)CSc1nnc(-c2ccc(S(=O)(=O)N3CCCC3)cc2)o1	4.9	14	1%	-3%	7%	3	-3.5%
CCOC(=O)c1c(-c2ccc(C)o2)csc1NC(=S)NC(=O)c1cccs1	-0.3	13	u	-11%	-7%	-6	-1.7%
O=C(Nc1ccon1)c1ccc(F)c(S(=O)(=O)N2CCCCC2)c1	0.8	0	4%	2%	0%[15.4 µM]	-3	x
COc1ccc(C)cc1NC(=O)CSc1nnc2ccc(-c3ccncc3)nn12	x	-9	x	8%	13%[15.4 µM]	-4	x
COc1ccc(NS(=O)(=O)c2ccc(C)c(NC(=O)c3ccc(C)c(S(=O)(=O)N4CCOCC4)c3)c2)cc1	3.1	7	9%	u	12%[15.4 µM]	-16	-1.7%
Cc1ccc(S(=O)(=O)CCc2nnc(N)s2)cc1C	0.8	-9	15%	-6%	-9%	-8	0.0%
Cc1nn(-c2ccccc2)c(N2CCCC2)c1/C=C1\N=C(c2ccc(OC(C)C)cc2)OC1=O	u	6	-10%	-1%	5%	-11	-0.2%
O=C(Nc1ncccn1)c1cccc(F)c1	5.1	2	5%	7%	-48%[inhibitor]	-3	-3.6%
CSCCC(NC(=O)COc1ccccc1)C(=O)N1CC(C)OC(C)C1 (stereo not given)	x	3	x	9%	40%	-1	-1.0%
COC(=O)[C@H](Cc1ccccc1)NC(=O)O[C@@H]1C(=O)c2cc(Br)ccc2O[C@H]1c1cccc(OC)c1	4.2&1.0	9	5%&-1%	x	x	x	x
CCn1c(=S)sc2c(=O)n(CC(=O)NC(C)CCc3ccccc3)c(C)nc21 (stereo not given)	-4.3	2	-13%	u	u	-7	-0.6%
Cc1ccc(C)c(NC(=O)c2cc3ccccn3n2)c1	1.4	-4	9%	-2%	0%	-10	-2.3%
COC(=O)[C@]1(Cc2ccccc2)N[C@H](CN(C)C(=O)Nc2ccc(Cl)cc2)[C@@H]2C(=O)N(C)C(=O)[C@@H]21	x	x	x	-1%	x	-7	-0.7%
COc1ccccc1NC(=S)N1CCN(c2ccccc2F)CC1	3.8	-1	1%	-5%	-10%	7	0.2%
Cc1ccc(NC(C(N)=O)c2c(C)[nH]c(=O)[nH]c2=O)cc1 (stereo not given)	0.3	-2	8%	2%	-26%	-20	-0.5%
Cc1ccc2c(c1)N(CC(=O)NCCCN1C(C)CCCC1C)C(=O)c1cccnc1O2 (stereo not given)	-2.5	3	8%	4%	-52%[inhibitor]	-4	1.3%
CCC(C(=O)Nc1ccc(S(=O)(=O)N2CCN(C)CC2)cc1)c1ccccc1 (stereo not given)	x	x	x	0%	13%	-14	-2.1%
